StopGo reporter = FMDV 2A StopGo reporter, luciferase signal; hit rate 1.2% among 410,000; human cells with a luciferase reporter of 2A StopGo recoding; control for the full effect not named in the record; Potency, µM (series often up to 57.9 µM), without a hit: at the highest dose signal change, negative = less light; active = well fitted falling curve with a large enough effect; inconclusive = small, poorly fitted or top-dose-only effect; inactive = no such curve, though single readings can be large or run the other way; tested in HEK293T cells; further: on the % scale 0 is the no-effect control and ±100 the full control effect; nearly all actives have a fitted effect of over 45% in size; luciferase light after 4 h
LASV entry inh = blocks Lassa virus binding to or entry into cells; Lassa virus pseudotype entry inhibition, cell reporter; control for the full effect not named in the record; Potency, µM (highest dose often 37.9 µM), without a hit: at the top dose activity change, negative = inhibition, hits mostly inhibitors; hit rate 1.2% among 300,000; AID 540256; active means well fitted inhibition curve with a large enough effect; inconclusive means small, poorly fitted or top-dose-only effect, or effect the other way; inactive means flat fitted curve, though single readings scatter; tested in HEK293 cells; further: on the % scale 0 is the no-effect control and ±100 the full control effect; nearly all actives have a fitted effect of over 50% in size; luciferase read-out
RE007 growth inh = less growth of the S. pombe RE007 Vpr strain; S. pombe RE007 Vpr strain, BacTiter-Glo ATP luminescence, 24 h; control for the full effect not named in the record; Potency, µM (highest dose often 92.2 µM), without a hit: at the highest dose activity change, negative = less growth; hit rate 0.21% among 360,000; active = well fitted falling curve with a large enough effect; inconclusive = small, poorly fitted or top-dose-only effect; inactive = no such curve, though single readings can be large or run the other way;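 further: on the % scale 0 is the no-effect control and ±100 the full control effect; nearly all actives have a fitted effect of over 50% in size; the assay follows cell death caused by Vpr and the record does not say whether a fall means rescue or toxicity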
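Fission yeast RE007 carrying one integrated HIV-1 vpr copy, seeded at OD 0.01 in PMG+AL medium with 23 nL pinned compound. Grown 24 h at 30 degrees; viability read by BacTiter-Glo luminescence after 5 min.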
MARV entry inh = inhibitors of Marburg virus binding or cell entry; Potency, µM (highest dose often 37.8 µM), for the others: top-dose activity change, negative = inhibition, usual class: inhibitors; Marburg virus pseudotyped entry inhibition, cell reporter; control for the full effect not named in the record; about a third of the inactives were read at about 46 µM; hit rate 1.8% among 300,000; AID 540276; active = well fitted inhibition curve with a large enough effect; inconclusive = small, poorly fitted or top-dose-only effect, or effect the other way; inactive = flat fitted curve, though single readings scatter; tested in HEK293 cells; about a fifth of its hits are not listed in these tables; further: on the % scale 0 is the no-effect control and ±100 the full control effect; luciferase read-out
Cruzain Triton = cruzain (T. cruzi) inhibition with detergent; P25779; purified cruzain, Z-FR-AMC fluorescence, 0.01% Triton; Potency, µM, without a hit: max response, negative = inhibition, hits mostly inhibitors; hit rate 0.43% among 200,000;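 further: plate controls were neutral wells for no effect and buffer without enzyme for full effect; nearly all actives have a fitted effect of over 40% in size; top concentration of the series not given in the record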
Target sequence (P25779 123-467 limits assumed): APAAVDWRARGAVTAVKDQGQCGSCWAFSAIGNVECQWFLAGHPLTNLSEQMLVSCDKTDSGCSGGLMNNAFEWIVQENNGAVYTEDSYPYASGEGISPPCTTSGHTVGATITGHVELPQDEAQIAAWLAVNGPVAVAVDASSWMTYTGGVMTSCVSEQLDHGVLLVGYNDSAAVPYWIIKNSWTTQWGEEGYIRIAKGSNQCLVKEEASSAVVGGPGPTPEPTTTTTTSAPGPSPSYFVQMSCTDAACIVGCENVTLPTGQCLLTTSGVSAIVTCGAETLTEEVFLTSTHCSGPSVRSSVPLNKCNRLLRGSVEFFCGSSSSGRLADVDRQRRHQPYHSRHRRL
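15 min RT preincubation of 1.5 nM cruzain with compound, then 2 uM Z-FR-AMC added; kinetic AMC fluorescence, 60 s delta. Triton X-100 0.01%, pH 5.5.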
Cruzain noTriton = cruzain (T. cruzi) inhibition without detergent. purified cruzain, Z-FR-AMC fluorescence, no detergent. Potency, µM, for the others: max response, negative = inhibition, usual class: inhibitors. P25779. hit rate 2.3% among 200,000;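 further: plate controls were enzyme without inhibitor for no effect and buffer without enzyme for full effect; nearly all actives have a fitted effect of over 40% in size; top concentration of the series not given in the record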
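Detergent-free condition (0.00005% Triton X-100) in acetate buffer pH 5.5 with DTT. 1.5 nM enzyme and compound were pre-mixed 15 min, then 2 uM Z-FR-AMC substrate added; reaction progress from fluorescence change between first and third reads (60 s).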
NS1 function inh = influenza NS1 inhibition; S. cerevisiae slowed by influenza A NS1, growth recovery by OD600; Potency, µM (top dose mostly 46.1 µM), for the others: at the top dose activity, positive = more growth; hit rate 0.4% among 270,000; active means well fitted rising curve with a large enough effect; inconclusive means small, poorly fitted or top-dose-only effect; inactive means no such curve, though single readings can be large or run the other way; further: nearly all actives have a fitted effect of over 50% in size
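S. cerevisiae expressing influenza A NS1, grown in glucose, washed, then diluted 1:100 into pH 6.0 -URA galactose medium with 23 nl compound. Growth recovery read as OD600; NS1-free strain serves as control.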
SARS PLP yeast = blocks SARS-CoV papain-like protease in a yeast assay; hit rate 0.19% among 330,000; S. cerevisiae expressing SARS-CoV PLpro, growth rescue; control for the full effect not named in the record; Potency, µM (highest dose often 32.9 µM), for the others: at the highest dose activity, positive = growth rescue; AID 485353; active means well fitted rising curve with a large enough effect; inconclusive means small, poorly fitted or top-dose-only effect; inactive means no such curve, though single readings can be large or run the other way; further: 0% is about no effect; nearly all actives have a fitted effect of over 55% in size; growth read by luminescence after 48 h
Starred values were filed as active, the others as inactive; [ ] = remark or other dose. Unless noted, the call rests on the fitted dose curve; in most records, active means well fitted curve in the direction sought with a large enough effect; inconclusive means small, poorly fitted or top-dose-only effect, or another doubt; inactive means no such curve, though single readings can be large; an effect the other way counts as inactive or inconclusive. Potency means the concentration at half of the fitted maximal effect.

O=c1c2ccccc2nc(-c2cccs2)n1-c1ccc2ccccc2c1 was read as StopGo reporter 15%, LASV entry inh 10%, RE007 growth inh 0%, MARV entry inh inconclusive, Cruzain Triton -4.0%, Cruzain noTriton inconclusive, NS1 function inh 16% and SARS PLP yeast 20%.
`CCOc1ccc(NC(=O)C[n+]2ccc(N(C)C)cc2)cc1` gave StopGo reporter -28%, LASV entry inh 1%, RE007 growth inh 7%, MARV entry inh -5%, Cruzain Triton 0.6%, Cruzain noTriton 2%, NS1 function inh 12% and SARS PLP yeast -7%.
CC(=O)/C(C#N)=C1\NC(=O)C(Cc2ccc(C)c(C)c2)S1 (configuration not stated) was read as StopGo reporter 9%, LASV entry inh 1.3µM*, RE007 growth inh 0%, MARV entry inh 0.41µM*, Cruzain Triton -7.7%, Cruzain noTriton -12%, NS1 function inh 7% and SARS PLP yeast -17%.
For Oc1cccc(N2Cc3ccccc3C2)c1 the results were StopGo reporter 29%, RE007 growth inh -4%, NS1 function inh 2% and SARS PLP yeast -3%.
`Cc1ccc2oc(=O)c3cnn(CC(=O)N4CCN(c5cc(Cl)ccc5C)CC4)c3c2c1` gave StopGo reporter inconclusive, LASV entry inh 9%[46.1 µM], MARV entry inh -3%[46.1 µM], Cruzain Triton -1.7% and Cruzain noTriton 7%.
Screening Oc1cccc(/C=C/c2ccc3cccc(O)c3n2)c1 returned StopGo reporter -51%, LASV entry inh inconclusive, RE007 growth inh inconclusive, MARV entry inh inconclusive, NS1 function inh -74% and SARS PLP yeast -8%.
Screening O=C(Nc1cc(Cl)cc(Cl)c1)c1ccc(F)c(S(=O)(=O)NCc2ccccc2Cl)c1 returned StopGo reporter -5%, LASV entry inh -18%[46.1 µM], Cruzain Triton 2.3% and Cruzain noTriton inconclusive.
`O=C(NNS(=O)(=O)c1cc(Cl)c(Cl)cc1Cl)c1cccnc1` gave StopGo reporter 45%[activator], RE007 growth inh -4%, NS1 function inh 2% and SARS PLP yeast -1%.
`O=C(O)CCC(=O)Nc1ccc(-n2ccc(C(F)(F)F)n2)cc1` gave StopGo reporter -14%, LASV entry inh 1%[46.1 µM], RE007 growth inh 5%, MARV entry inh 18%[46.1 µM], NS1 function inh 1% and SARS PLP yeast -1%.
`Cc1c(C#N)c2ccccc2n1CC(=O)NCCc1c[nH]c2ccccc12` gave StopGo reporter -28%, RE007 growth inh 3%, Cruzain Triton -8.4%, Cruzain noTriton -7%, NS1 function inh -17% and SARS PLP yeast 0%.
`N#Cc1nc(COc2ccc(Br)cc2)oc1N1CCCCCC1` gave StopGo reporter -5%, RE007 growth inh -8%, Cruzain Triton -1.4%, Cruzain noTriton inconclusive, NS1 function inh -91% and SARS PLP yeast -12%.
For NC(=O)CSc1nnc(-c2ccccc2Br)n1-c1cccc(C(F)(F)F)c1 the results were StopGo reporter -18%, LASV entry inh -44%, RE007 growth inh 2%, MARV entry inh -8%, Cruzain Triton -1.1%, Cruzain noTriton 9%, NS1 function inh -1% and SARS PLP yeast 24%.
CCOC(=O)c1ccccc1NC(=O)COC(=O)C1CC(=O)N(c2ccc3c(c2)OCCO3)C1 (configuration not stated) was read as StopGo reporter -16%, LASV entry inh 0%, RE007 growth inh -13%, MARV entry inh -28% and SARS PLP yeast -7%.
For Cc1ccc(C(=O)COC(=O)C(C)N2C(=O)C3C4CCC(C4)C3C2=O)cc1C (configuration not stated) the results were StopGo reporter 2%, LASV entry inh -4%, RE007 growth inh -28%, MARV entry inh -5%, NS1 function inh 5% and SARS PLP yeast -3%.
For NC(=O)CC(NC(=O)Cc1ccc(Cl)cc1)c1ccc(N2CCC(Cc3ccccc3)CC2)c([N+](=O)[O-])c1 (configuration not stated) the results were StopGo reporter -10%, RE007 growth inh 17%, NS1 function inh 8% and SARS PLP yeast -10%.

Gathered by group: the entries above with a cyano group.
CC(=O)/C(C#N)=C1\NC(=O)C(Cc2ccc(C)c(C)c2)S1 (configuration not stated) was read as StopGo reporter 9%, LASV entry inh 1.3µM*, RE007 growth inh 0%, MARV entry inh 0.41µM*, Cruzain Triton -7.7%, Cruzain noTriton -12%, NS1 function inh 7% and SARS PLP yeast -17%.
`Cc1c(C#N)c2ccccc2n1CC(=O)NCCc1c[nH]c2ccccc12` gave StopGo reporter -28%, RE007 growth inh 3%, Cruzain Triton -8.4%, Cruzain noTriton -7%, NS1 function inh -17% and SARS PLP yeast 0%.
`N#Cc1nc(COc2ccc(Br)cc2)oc1N1CCCCCC1` gave StopGo reporter -5%, RE007 growth inh -8%, Cruzain Triton -1.4%, Cruzain noTriton inconclusive, NS1 function inh -91% and SARS PLP yeast -12%.

(more compounds)
Screening Cc1ccc(C)c(NC(=O)CSc2nc(=O)n(Cc3ccccn3)c3c2CCC3)c1 returned StopGo reporter 13%, LASV entry inh -10%[46.1 µM], Cruzain Triton 0.5% and Cruzain noTriton -6%.
`CC(C)(C)NC(=O)CSc1nnc(NC(=O)CCn2cnc3ccccc3c2=O)s1` gave StopGo reporter inconclusive, LASV entry inh -18%, RE007 growth inh -3%, MARV entry inh inconclusive, Cruzain Triton 1.1%, Cruzain noTriton 1%, NS1 function inh -14% and SARS PLP yeast 8%.
`Cc1cc(C)n(-c2cc(C(C)(C)C)nc3c(-c4ccc(Cl)cc4)cnn23)n1` gave StopGo reporter 26%, LASV entry inh -9%, RE007 growth inh -14%, MARV entry inh inconclusive, Cruzain Triton 1.0%, Cruzain noTriton inconclusive, NS1 function inh -52% and SARS PLP yeast -29%.
`CCOC(=O)C1(Cc2ccc(Cl)cc2)CCN(C(C)CCn2cccn2)CC1` (configuration not stated) gave StopGo reporter -15%, LASV entry inh -24%[46.1 µM], RE007 growth inh 2%, MARV entry inh inconclusive, NS1 function inh -5% and SARS PLP yeast -2%.
For Cc1ccc(S(=O)(=O)N(C)CC(=O)OCC(=O)Nc2ccccc2)cc1 the results were StopGo reporter -13%, RE007 growth inh 11%, NS1 function inh -50% and SARS PLP yeast -2%.
O=C(N/N=C\c1ccc(-c2ccc([N+](=O)[O-])cc2)o1)c1ccc2c(c1)OCO2 was read as StopGo reporter -21%, LASV entry inh 4%, RE007 growth inh -22%, MARV entry inh 16%, Cruzain Triton -1.1%, Cruzain noTriton 7.9µM*, NS1 function inh -13% and SARS PLP yeast -12%.
`CCOC(=O)c1[nH]c2ccc(F)cc2c1NC(=O)CCN1CCOCC1` gave StopGo reporter -11%, LASV entry inh 3%, RE007 growth inh 10%, MARV entry inh 6%, Cruzain Triton -1.4%, Cruzain noTriton -13%, NS1 function inh -17% and SARS PLP yeast 17%.
For Cc1ccc(C)c(N(CC(=O)NC2CCCC2)C(=O)c2cc3cc4cccc(C)c4nc3s2)c1 the results were LASV entry inh -30%, RE007 growth inh -10%, MARV entry inh inconclusive, Cruzain Triton -0.9%, Cruzain noTriton 2%, NS1 function inh 4% and SARS PLP yeast 5%.
Screening Cc1ccccc1NC1=C(Cl)C(=O)N(C2CCCCC2)C1=O returned StopGo reporter -25%, LASV entry inh 16%, RE007 growth inh 6%, MARV entry inh -21%, Cruzain Triton -4.4%, Cruzain noTriton 3%, NS1 function inh -60% and SARS PLP yeast -34%.
Screening COc1ccc(C(=O)Nc2ccc(C3(C#N)CCCC3)cc2)cc1OC returned StopGo reporter 0%, RE007 growth inh 1%, NS1 function inh -23% and SARS PLP yeast -1%.
`CCC(C)NC(=O)c1c(N)n(/N=C/c2cccs2)c2nc3ccccc3nc12` (configuration not stated) gave Cruzain Triton -1.8%, Cruzain noTriton 0%, NS1 function inh 12% and SARS PLP yeast -2%.
Screening CC(C)(C)c1cc(-n2ccnc2)n2ncc(-c3ccc(Cl)cc3)c2n1 returned StopGo reporter 13%, LASV entry inh -3%, RE007 growth inh -2%, MARV entry inh inconclusive, Cruzain Triton -0.6%, Cruzain noTriton -2%, NS1 function inh 10% and SARS PLP yeast 8%.
`COc1ccc(NC(=O)Nc2c[nH]c(=O)[nH]c2=O)c(OC)c1` gave StopGo reporter -9%, LASV entry inh 6%[46.1 µM], Cruzain Triton 2.3% and Cruzain noTriton -2%.
For COc1ccccc1OCC(=O)NN=C(Cc1ccccc1)Cc1ccccc1 the results were StopGo reporter -12%, LASV entry inh 6%, RE007 growth inh -1%, MARV entry inh inconclusive, Cruzain Triton -13%, Cruzain noTriton 3%, NS1 function inh inconclusive and SARS PLP yeast -2%.
Cc1cccc(/C=N/n2c(-c3ccccc3)n[nH]c2=S)c1O was read as StopGo reporter -13%, LASV entry inh 6%[46.1 µM], RE007 growth inh 4%, MARV entry inh 27%[46.1 µM], NS1 function inh 27% and SARS PLP yeast -1%.
For O=C(C1CC(c2ccccc2O)=NO1)N1CCCCC1 (configuration not stated) the results were LASV entry inh 3%, RE007 growth inh -12%, MARV entry inh 3%, Cruzain Triton -1.2%, Cruzain noTriton 2%, NS1 function inh 3% and SARS PLP yeast 1%.
`O=C(Nc1ccccc1F)c1ccn[nH]1` gave StopGo reporter 32%[activator], LASV entry inh 9%, RE007 growth inh 2%, MARV entry inh -8%[46.1 µM] and SARS PLP yeast -11%.
For C=CCN(Cc1ccco1)S(=O)(=O)c1ccc(Cl)cc1 the results were StopGo reporter -5%, LASV entry inh 18%[46.1 µM], RE007 growth inh -3%, MARV entry inh 1%[46.1 µM], NS1 function inh inconclusive and SARS PLP yeast inconclusive.
`COCC(=O)n1nc(-c2ccccc2)nc1NCc1cccs1` gave StopGo reporter 61%[activator], LASV entry inh -7%, RE007 growth inh 12%, MARV entry inh 4%[46.1 µM], NS1 function inh 0% and SARS PLP yeast 0%.
Screening N#Cc1ccccc1NS(=O)(=O)c1cc2c3c(c1)CCN3C(=O)CC2 returned StopGo reporter 50%[activator], LASV entry inh -10%, RE007 growth inh 23%, MARV entry inh 1%[46.1 µM] and SARS PLP yeast -3%.
For Clc1ccc(Cn2ncc3c(NCc4ccccc4)ncnc32)cc1 the results were StopGo reporter 0%, LASV entry inh inconclusive, RE007 growth inh -3%, MARV entry inh inconclusive, Cruzain Triton -4.7%, Cruzain noTriton 5%, NS1 function inh -4% and SARS PLP yeast -15%.
